Mtb betalactam = beta-lactam sensitization of Mtb H37Rv, H37Rv; M. tuberculosis H37Rv growth with meropenem, percent inhibition; hits of this screen are not shown here; inhibition, % at 25 µM; 330,000 compounds, 0.27% hits;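 active = about 74% or more and at least 40 points above the plate without the antibiotic, then above 30% in a dose series; inconclusive = first-round hits that could not be retested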;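 note: growth measured after seven days incubation then overnight dye step; 0% = bacteria only wells and 100% = bacteria with antibiotic; twin plates without the antibiotic show which effects depend on it; some results filed as inactive read as strong as hits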
RecA intein inh = Mtb RecA intein splicing inhibitors, primary screen, biochemical, fluorescence, HTS | AID 2221, 2009 | inhibition, %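 (about 9 µM by stock and volumes)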 | cell-free RecA intein splicing | 290,000 compounds, 0.75% hits; in the data active = inhibition above about 30%; inconclusive = no clear call, values can overlap the other calls;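 note: 0% = vehicle wells and 100% = reference inhibitor control wells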
Target sequence (P9WHJ3 whole entry, looked up): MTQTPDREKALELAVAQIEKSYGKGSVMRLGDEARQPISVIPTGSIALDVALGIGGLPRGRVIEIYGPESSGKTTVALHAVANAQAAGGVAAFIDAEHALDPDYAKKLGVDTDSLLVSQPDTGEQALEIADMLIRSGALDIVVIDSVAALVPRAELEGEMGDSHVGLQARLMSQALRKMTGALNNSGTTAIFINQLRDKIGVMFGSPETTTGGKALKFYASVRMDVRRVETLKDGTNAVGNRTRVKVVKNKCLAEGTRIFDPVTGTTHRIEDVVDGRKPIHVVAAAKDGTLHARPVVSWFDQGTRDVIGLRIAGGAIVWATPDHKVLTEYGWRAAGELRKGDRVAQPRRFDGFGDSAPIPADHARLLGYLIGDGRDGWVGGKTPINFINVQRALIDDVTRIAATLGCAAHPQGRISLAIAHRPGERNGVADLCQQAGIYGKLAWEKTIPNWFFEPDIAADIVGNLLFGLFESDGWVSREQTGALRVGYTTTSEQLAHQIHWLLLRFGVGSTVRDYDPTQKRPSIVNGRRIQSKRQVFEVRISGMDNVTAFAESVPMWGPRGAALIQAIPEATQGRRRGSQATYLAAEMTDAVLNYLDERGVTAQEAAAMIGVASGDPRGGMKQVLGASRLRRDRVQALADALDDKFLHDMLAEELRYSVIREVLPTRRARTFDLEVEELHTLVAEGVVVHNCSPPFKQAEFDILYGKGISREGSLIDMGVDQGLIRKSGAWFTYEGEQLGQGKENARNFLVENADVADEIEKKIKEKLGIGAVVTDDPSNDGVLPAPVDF
Arbovirus inh = antivirals against arbovirus infection, primary screen, cell-based, full library, 10K replicate subset | arbovirus infection cell-based antiviral screen | inhibition, % at 10 µM | 200,000 compounds, 0.37% hits | AID 1251, 2008;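 active = inhibition from about 30%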;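 note: bluetongue infection of BSR cells; cell survival read as ATP light after 72 h; 0% = infected wells without compound and 100% = uninfected wells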
Mtb H37Rv = M. tuberculosis H37Rv growth inhibitors, H37Rv strain (AID 1626) | inhibition, % at 10 µM; hits with a dose series show IC50 in µM | M. tuberculosis H37Rv growth inhibition; higher % means a stronger effect | 220,000 compounds, 0.95% hits;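 active = confirmed in a dose series; inconclusive = inhibition above 80% but not taken into the dose series; inactive = below 80% or under 30% at every dose of the series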;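 note: bacteria incubated seven days before Alamar blue readout; 0% = bacteria only wells and 100% = bacteria with antibiotic wells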
YopH PTP inh = YopH tyrosine phosphatase inhibitors, primary screen, biochemical, fluorescence Ex485/Em525; inhibition, %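 (about 10 µM by stock and volumes)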; 140,000 compounds, 0.16% hits; AID 898, 2007;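 active = inhibition of 50% or more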;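 note: controls were vehicle for no effect and minimum signal wells for full effect; inactives centre near -20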
Arbovirus inh repeat = also measured in Arbovirus inh; calls as there; inhibition, %; measured here: 10K subset replicate screen; many hits read low in the repeat;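 first of two repeat runs on a subset; 0% = infected and 100% = uninfected wells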
The depositor's hits bear a star; ? = inconclusive; . = not tested or not shown.

Start of the data: the first three entries (preview)
SMILES	Mtb betalactam	RecA intein inh	Arbovirus inh	Mtb H37Rv	YopH PTP inh	others
CC(=O)c1ccc(S(=O)c2ccccc2)cc1 (stereo unspecified)	-11	-3.0	1	5%	-19
CCC(C)N(C(=O)COC(=O)c1nc(Cl)ccc1Cl)C1CCS(=O)(=O)C1 (stereo unspecified)	-10	1.2	.	.	.
COC(=O)C1=C(C)NC2=C(C(=O)CC(c3cccs3)C2)C1c1ccsc1 (stereo unspecified)	1	-19	-15	7%	7	Arbovirus inh repeat=-14

Results, previewed entries included:
SMILES	Mtb betalactam	RecA intein inh	Arbovirus inh	Mtb H37Rv	YopH PTP inh	others
CC(=O)c1ccc(S(=O)c2ccccc2)cc1 (stereo unspecified)	-11	-3.0	1	5%	-19
CCC(C)N(C(=O)COC(=O)c1nc(Cl)ccc1Cl)C1CCS(=O)(=O)C1 (stereo unspecified)	-10	1.2	.	.	.
COC(=O)C1=C(C)NC2=C(C(=O)CC(c3cccs3)C2)C1c1ccsc1 (stereo unspecified)	1	-19	-15	7%	7	Arbovirus inh repeat=-14
CCOC(=O)N1CCC(N2C(=O)c3ccc(C(=O)Nc4ccc(OC)cc4)cc3C2=O)CC1	5	3.1	.	.	.
CCOc1ccccc1N1CCN(C(=O)c2c(Cl)cnn2C)CC1	-5	-0.2	.	.	.
O=C1NC2C(NC(=O)N2C2CCCCC2)N1C1CCCCC1 (stereo unspecified)	-2	-0.4	5	14%	-8
CC(C)CCNc1nc2c(c(=O)n(Cc3cccc(F)c3)c(=O)n2C)n1C	6	6.7	-25	3%	-46
CCOc1ccc(C2=Nn3c(nnc3-c3ccccc3)SC2)cc1Cl	-1	.	-12	-13%	-3
CSCCC(NS(=O)(=O)c1ccc(Br)cc1)C(=O)OCC(=O)NC1CC1 (stereo unspecified)	1	0.0	-7	-2%	.
CC1CC(C)(C)NC(=S)N1CC(=O)N1CCN(Cc2ccccc2)CC1 (stereo unspecified)	1	.	2	1%	.
Cc1c(NC(=O)Nc2cc(Cl)ccc2Cl)c(=O)n(-c2ccccc2)n1C	-1	0.0	.	.	.
COc1ccc(C(=O)/C=C/Nc2ccc(S(N)(=O)=O)cc2)cc1OC	1	-9.1	.	-9%	.
Cc1ccc(C)c(Nc2cc(C)nc3ccccc23)c1	-14	1.0	.	.	.
CCC(C)(C)NC(=O)C(c1ccc(F)cc1)N(Cc1ccc(OC)cc1)C(=O)c1cnccn1 (stereo unspecified)	-4	1.8	-3	-2%	.
CCOc1ccc(OCC)c(NS(=O)(=O)c2ccc3c(c2)CCN3C(=O)C2CCC2)c1	-8	-1.9	7	1%	-5
COc1cccc(NC(=O)c2cccc(N3C(=O)C4CCC(C)CC4C3=O)c2)c1 (stereo unspecified)	-3	2.1	.	.	.
CN(C(=O)CSc1ncnc2sc(-c3ccccc3)cc12)C1CCS(=O)(=O)C1 (stereo unspecified)	-1	-1.1	-2	-2%	.
N#CC1=C(N)N(c2ccc(F)cc2)C2=C(C1c1ccc(O)cc1)S(=O)(=O)CC2 (stereo unspecified)	.	.	18	1%	.
CCN1C(=S)SC(=O)C1=C1C=C(C)OC(C)=C1	-10	-0.2	-2	-2%	-23	Arbovirus inh repeat=-1
COCCOC(=O)c1c(C)oc2ccc(OC(=O)c3c(OC)cccc3OC)cc12	.	2.8	7	10%	-35
CC(C)c1ccc(NC2CCCN(C(=O)CCN3CCCO3)C2)cc1 (stereo unspecified)	2	-2.6	.	.	.
CC(=O)NCc1ccc(-c2csc(-c3cccs3)n2)cc1	2	8.6	.	.	.
Cc1ncc(CN2CCN(Cc3ccc(F)cc3)C(CCO)C2)s1 (stereo unspecified)	-1	-1.1	-3	48%	.
COCCN1CC(C(=O)NCCc2nc(C)c(C)s2)CCC1=O (stereo unspecified)	-4	0.4	.	.	.
CCN1CCN(C(=O)c2cc3c(s2)-c2ccccc2S(=O)(=O)C3)CC1	3	-4.3	-11	-1%	-21	Arbovirus inh repeat=0
Cc1csc(SCCn2c(Br)nc3c2c(=O)[nH]c(=O)n3C)n1	-4	3.0	7	-4%	-29
NC(=O)CN1CCN(C2CC(=O)N(CCc3ccccc3)C2=O)CC1 (stereo unspecified)	1	-3.3	-5	-10%	.
C[C@@H](C(=O)N[C@@H](Cc1c[nH]c2ccccc12)C(=O)O)n1nnc2ccccc2c1=O	-12	-2.9	.	-7%	.
CC(C#N)(Nc1ccc(Cl)cc1)c1cccnc1 (stereo unspecified)	-12	-1.9	-20	-3%	-15
CCc1cccc(C)c1NC(=S)NCc1cccn1C	2	3.6	4	-5%	-20

Grouped by structure: the entries above containing a cyano group.
SMILES	Mtb betalactam	RecA intein inh	Arbovirus inh	Mtb H37Rv	YopH PTP inh	others
N#CC1=C(N)N(c2ccc(F)cc2)C2=C(C1c1ccc(O)cc1)S(=O)(=O)CC2 (stereo unspecified)	.	.	18	1%	.
CC(C#N)(Nc1ccc(Cl)cc1)c1cccnc1 (stereo unspecified)	-12	-1.9	-20	-3%	-15

More results follow:
SMILES	Mtb betalactam	RecA intein inh	Arbovirus inh	Mtb H37Rv	YopH PTP inh	others
CC(=O)OC1CCC(OC(C)=O)c2c1n([O-])c(C)c(C)[n+]2=O (stereo unspecified)	-2	-0.1	10	-4%	-45
Cc1cccn2c(=O)c3c(nc12)N1CCC(Cc2ccccc2)CC1C1(C3)C(=O)N(C)C(=O)N(C)C1=O (stereo unspecified)	46	3.7	-23	-7%	-56
CCOC(=O)N1CCC(NC(=O)C2CCN(C(=O)N3CC(C)Oc4ccc(C)cc43)CC2)CC1 (stereo unspecified)	-5	2.4	-7	-5%	-5
O=[N+]([O-])c1cccc(NC2=NCCC2)c1	2	0.0	5	2%	.
CCOc1ccc(CCNC(=O)c2cc(C)nc3ccccc23)cc1OCC	4	0.8	.	.	.
NC(=O)C1CCN(C(=O)COc2ccc3c4c(c(=O)oc3c2)CCC4)CC1	3	-2.1	.	.	.
COc1ccc(NS(=O)(=O)c2ccc3oc(SC(C)C(N)=O)nc3c2)cc1 (stereo unspecified)	-4	3.3	.	.	.
Cc1cc(NC(=O)COC(=O)c2oc3c(Cl)cccc3c2C)no1	1	-1.3	6	5%	-5
CCOC(=O)C1CCN(CCC(=O)Nc2cccc(Cl)c2)CC1	-9	-5.2	0	-2%	-46
N#CCSc1nc2sccc2c(=O)n1-c1ccccc1	-5	2.4	.	.	.
COc1cccc(Cc2n[nH]c(=S)n2Cc2ccco2)c1	1	0.3	.	6%	.
C=CCNc1nc(C2(C)CC3(CC(C)(C)OC3=O)C(=O)O2)cs1 (stereo unspecified)	-2	0.0	4	-4%	-54
CCn1cc(Cl)c(C(=O)Nc2ccc3c(c2)OCCO3)n1	-1	0.4	-4	-6%	.
O=C(NCc1ccc(Cl)cc1)c1ccccc1Oc1ccccc1	81	5.8	-31	17%	-4
Cc1cc(N)ccc1NC(=O)CN1CCOCC1	2	-1.9	.	.	.

Six structures out of the list, sorted by molecular weight, smallest number first:
SMILES	Mtb betalactam	RecA intein inh	Arbovirus inh	Mtb H37Rv	YopH PTP inh	others
Cc1cc(N)ccc1NC(=O)CN1CCOCC1	2	-1.9	.	.	.
Cc1ccc(C)c(Nc2cc(C)nc3ccccc23)c1	-14	1.0	.	.	.
NC(=O)CN1CCN(C2CC(=O)N(CCc3ccccc3)C2=O)CC1 (stereo unspecified)	1	-3.3	-5	-10%	.
Cc1c(NC(=O)Nc2cc(Cl)ccc2Cl)c(=O)n(-c2ccccc2)n1C	-1	0.0	.	.	.
CCOC(=O)N1CCC(N2C(=O)c3ccc(C(=O)Nc4ccc(OC)cc4)cc3C2=O)CC1	5	3.1	.	.	.
CCOC(=O)N1CCC(NC(=O)C2CCN(C(=O)N3CC(C)Oc4ccc(C)cc43)CC2)CC1 (stereo unspecified)	-5	2.4	-7	-5%	-5

Other results:
SMILES	Mtb betalactam	RecA intein inh	Arbovirus inh	Mtb H37Rv	YopH PTP inh	others
COc1ccc(/C(C)=N/NC(=O)c2ccc(CSc3cccc4cccnc34)cc2)cc1OC	5	.	2	-9%	-39
COc1cc(/C=C/C(=O)OCC(=O)N2CCC(C)CC2)ccc1O	0	-8.9	.	.	.
O=C(NCCCN1CCOCC1)c1ccc(Br)s1	-2	0.7	1	-18%	27
COc1ccc(C)cc1S(=O)(=O)NC(C)C(=O)NC1CC1 (stereo unspecified)	-6	-1.0	.	.	.
COCCN(C(=O)COC(=O)CCCOc1ccc(OC)cc1)c1c(N)n(Cc2ccccc2)c(=O)[nH]c1=O	0	0.4	.	.	.
CC(=NCCN1CCCCC1)c1c(O)n(-c2ccc(Cl)cc2)c(=O)[nH]c1=O	1	-1.1	-1	-10%	-11
CCc1nnc(NC(=O)CCC(=O)N2CCN(C3c4ccccc4-c4ccccc43)CC2)s1	-5	5.8	8	-1%	-44
Cn1c(C2=C(O)CN(c3ccccc3)C2=N)nc2ccccc21	6	.	-3	-1%	.
Cn1ncc2c(Nc3ccc(O)cc3)nc(Cl)nc21	-4	-2.6	.	-4%	.
COc1ccc(-n2c(=O)[nH]c3c(C(N)=O)nc(C4CCCCC4)nc32)cc1	16	2.0	-5	3%	.
O=C(COC(=O)C1CC2C=CC1C2)Nc1cccc(S(=O)(=O)N2CCOCC2)c1 (stereo unspecified)	-3	0.9	.	-8%	.
O=[N+]([O-])c1cc([N+](=O)[O-])c(Oc2c(F)cc(F)cc2F)cc1NN1CCCCC1	23	0.4	.	.	.
O=C(COc1ccc(C(=S)N2CCCC2)cc1)Nc1ccccc1C(F)(F)F	?	1.1	.	.	.
CC(=O)C(C)n1c(CN2CCN(C(=O)c3ccco3)CC2)nc2c1c(=O)n(C)c(=O)n2C (stereo unspecified)	-2	-0.1	.	.	.
CCCCN(CCCC)C(=O)/C=C/c1cccc([N+](=O)[O-])c1	0	3.2	-17	3%	-26

2 consecutive records out of the list so far, for reference:
SMILES	Mtb betalactam	RecA intein inh	Arbovirus inh	Mtb H37Rv	YopH PTP inh	others
CC(=NCCN1CCCCC1)c1c(O)n(-c2ccc(Cl)cc2)c(=O)[nH]c1=O	1	-1.1	-1	-10%	-11
CCc1nnc(NC(=O)CCC(=O)N2CCN(C3c4ccccc4-c4ccccc43)CC2)s1	-5	5.8	8	-1%	-44

More results:
SMILES	Mtb betalactam	RecA intein inh	Arbovirus inh	Mtb H37Rv	YopH PTP inh	others
Nc1nnnn1CC(=O)N/N=C/c1cccs1	-7	-1.1	.	-14%	.
CN1CCN(/N=C/c2ccc(C#N)cc2)CC1	-2	-3.0	4	-4%	.
Oc1ccc(Cc2ccc(Cl)cc2)c(O)c1	-4	1.9	.	-7%	.
COc1cccc(-c2nn(C)c3sc(C(=O)NCc4ccc5c(c4)OCO5)cc23)c1	-6	1.9	-11	33%	-8	Arbovirus inh repeat=-15
O=C(Nc1ccc(F)cc1)N1CCCCCC1	-13	-1.2	.	.	.
Oc1c(N=NC(=S)Nc2ccccc2F)c2ccccc2n1Cc1ccccc1F	15	2.9	-13	2%	.
O=C(CN(CCc1ccccc1)C(=O)CNS(=O)(=O)c1ccc(F)cc1)NCC1CCCO1 (stereo unspecified)	-8	-5.6	-2	2%	-31
CNC(=O)c1sccc1-n1cccc1	-5	-0.1	-6	-4%	-23
Cn1c(SCC(=O)NC2CCCCC2)nnc1-c1cc2cc(Cl)ccc2o1	8	0.3	-4	-11%	2
COc1cccc(/C=N/NC(=O)c2cnccn2)c1	1	0.1	4	-3%	-27
COCc1cc(C)nc2sc(C(=O)NCCO)c(-n3cccc3)c12	-6	-0.6	7	1%	.
CCCCCSc1nnc(N)s1	88	-4.3	.	?	.
COC(=O)c1cc2c(ccn2C)n1C	6	3.4	-3	-3%	.
Cc1cc(NC(=O)CN2C(=O)C3CC=CCC3C2=O)no1 (stereo unspecified)	2	-2.0	5	3%	-27
Cc1ccc(C)c(NC(=O)CCC(=O)NN=C2CCCC2)c1	-2	-2.6	.	.	.
CCc1cccc(C)c1NC(=O)Nc1ccc2c(c1)OCO2	-2	-0.6	-12	-2%	.

These rows are one share of the data. The share of hits here may be higher or lower than overall.
